# Assay outcomes from PubChem BioAssay.
# NS1 function inh: inhibitors of influenza NS1 protein function | S. cerevisiae slowed by influenza A NS1, growth recovery by OD600 | Potency, µM (doses to about 46.1 µM), without a hit: at the highest dose activity, positive = more growth | 0.4% of 270,000 active | AID 2326; active means well fitted rising curve with a large enough effect; inconclusive means small, poorly fitted or top-dose-only effect; inactive means no such curve, though single readings can be large or run the other way; note: nearly all actives have a fitted effect of over 50% in size
#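 Compounds were scored for reversing the slow growth caused by influenza A NS1 in S. cerevisiae, measured by optical density at 600 nm. Assay medium contained 2% galactose at pH 6.0; NS1-free yeast of the same strain were the positive control.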
# MARV entry inh: Marburg virus entry inhibition; 1.8% of 300,000 active; Marburg virus pseudotyped entry inhibition, cell reporter; control for the full effect not named in the record; about a third of the inactives were read at about 46 µM; Potency, µM (titrated, usually from 37.8 µM), for inactives: at the highest dose activity change, negative = inhibition, hits mostly inhibitors; active = well fitted inhibition curve with a large enough effect; inconclusive = small, poorly fitted or top-dose-only effect, or effect the other way; inactive = flat fitted curve, though single readings scatter; tested in HEK293 cells; about a fifth of its hits are not listed in these tables; note: % is set by controls: 0 for no effect and ±100 for the full control effect; luciferase read-out
# Cruzain noTriton: cruzain (T. cruzi) inhibition without detergent; Potency, µM, for inactives: max response, negative = inhibition, most hits filed as inhibitors; purified cruzain, Z-FR-AMC fluorescence, no detergent; 2.3% of 200,000 active; P25779;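 note: plate controls were enzyme without inhibitor for no effect and buffer without enzyme for full effect; nearly all actives have a fitted effect of over 40% in size; top concentration of the series not given in the record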
# Target sequence (P25779 123-467 limits assumed): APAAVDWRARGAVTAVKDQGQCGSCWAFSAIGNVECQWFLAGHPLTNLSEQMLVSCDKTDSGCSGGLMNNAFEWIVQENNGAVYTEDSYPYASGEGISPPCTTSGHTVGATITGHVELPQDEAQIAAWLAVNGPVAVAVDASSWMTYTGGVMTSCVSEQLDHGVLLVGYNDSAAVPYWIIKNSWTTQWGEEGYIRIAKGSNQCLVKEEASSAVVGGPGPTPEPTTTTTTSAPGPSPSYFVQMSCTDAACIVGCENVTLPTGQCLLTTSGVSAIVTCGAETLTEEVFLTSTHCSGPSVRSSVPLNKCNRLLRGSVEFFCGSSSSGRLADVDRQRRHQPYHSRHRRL
#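 Purified cruzain at 1.5 nM, pre-incubated 15 min with compound at room temperature in 100 mM sodium acetate pH 5.5, 5 mM DTT, 0.00005% Triton X-100. Reaction started with 2 uM Z-FR-AMC; AMC fluorescence increase over 60 s gives rate.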
# Cruzain inh Det: blocks cruzain activity in presence of Triton detergent; Potency, µM, without a hit: max response, negative = inhibition, hits mostly inhibitors; 0.43% of 200,000 active; P25779; purified cruzain, Z-FR-AMC fluorescence, 0.01% Triton;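 note: plate controls were neutral wells for no effect and buffer without enzyme for full effect; nearly all actives have a fitted effect of over 40% in size; top concentration of the series not given in the record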
#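 Read-out: AMC fluorescence (360 nm excitation, 450 nm emission), four reads over 2 min, first-to-third difference used. Conditions: cruzain 1.5 nM, Z-FR-AMC 2 uM, pH 5.5 acetate, 5 mM DTT, 0.01% Triton X-100.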
# LASV entry inh: inhibitors of Lassa virus binding or cell entry; Lassa virus pseudotype entry inhibition, cell reporter; control for the full effect not named in the record; Potency, µM (highest dose often 37.9 µM), inactives show at the highest dose activity change, negative = inhibition, hits mostly inhibitors; 1.2% of 300,000 active; AID 540256; active means well fitted inhibition curve with a large enough effect; inconclusive means small, poorly fitted or top-dose-only effect, or effect the other way; inactive means flat fitted curve, though single readings scatter; tested in HEK293 cells; note: % is set by controls: 0 for no effect and ±100 for the full control effect; nearly all actives have a fitted effect of over 50% in size; luciferase read-out
# SARS PLpro yeast: blocks SARS-CoV papain-like protease in a yeast assay | S. cerevisiae expressing SARS-CoV PLpro, growth rescue; control for the full effect not named in the record | Potency, µM (series often up to 32.9 µM), inactives show top-dose activity, positive = growth rescue | 0.19% of 330,000 active; active means well fitted rising curve with a large enough effect; inconclusive means small, poorly fitted or top-dose-only effect; inactive means no such curve, though single readings can be large or run the other way; note: 0% is about no effect; nearly all actives have a fitted effect of over 55% in size; growth read by luminescence after 48 h
# RE007 growth inh: less growth of the S. pombe RE007 Vpr strain; S. pombe RE007 Vpr strain, BacTiter-Glo ATP luminescence, 24 h; control for the full effect not named in the record; Potency, µM (titrated, usually from 92.2 µM), inactives show top-dose activity change, negative = less growth; 0.21% of 360,000 active; AID 651644; active = well fitted falling curve with a large enough effect; inconclusive = small, poorly fitted or top-dose-only effect; inactive = no such curve, though single readings can be large or run the other way;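 note: % is set by controls: 0 for no effect and ±100 for the full control effect; nearly all actives have a fitted effect of over 50% in size; the assay follows cell death caused by Vpr and the record does not say whether a fall means rescue or toxicity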
#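 Fission yeast RE007 carrying one integrated HIV-1 vpr copy, seeded at OD 0.01 in PMG+AL medium with 23 nL pinned compound. Grown 24 h at 30 degrees; viability read by BacTiter-Glo luminescence after 5 min.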
# 2A StopGo: lowers the luciferase signal of an FMDV 2A StopGo reporter | Potency, µM (top dose mostly 57.9 µM), inactives show at the highest dose signal change, negative = less light | 1.2% of 410,000 active | AID 1159524 | human cells with a luciferase reporter of 2A StopGo recoding; control for the full effect not named in the record; active = well fitted falling curve with a large enough effect; inconclusive = small, poorly fitted or top-dose-only effect; inactive = no such curve, though single readings can be large or run the other way; tested in HEK293T cells; note: % is set by controls: 0 for no effect and ±100 for the full control effect; nearly all actives have a fitted effect of over 45% in size; luciferase light after 4 h
# Active calls of the source: *; ? = inconclusive; nt = no result given; & = joins results of further samples; [ ] = dose if it differs, or a comment. Unless noted, calls come from the whole dose curve; as a rule, active = well fitted curve in the direction sought with a large enough effect; inconclusive = small, poorly fitted or top-dose-only effect, or another doubt; inactive = no such curve, though single readings can be large; an effect the other way counts as inactive or inconclusive. Potency is the fitted concentration of half-maximal effect.
smiles,NS1 function inh,MARV entry inh,Cruzain noTriton,Cruzain inh Det,LASV entry inh,SARS PLpro yeast,RE007 growth inh,2A StopGo
Cc1c(C(=O)OC2CCCCCC2)[nH]c2c1C(=O)CC(c1ccccc1)C2 (centres undefined),nt,-1%[46.1 µM],6%,-3.1%,-22%[46.1 µM],nt,nt,-23%
Cn1nc(C(=O)Nc2ccc3c(c2)OCCO3)cc1C(=O)O,7%,4%[46.1 µM],nt,nt,?,-2%,?,?
CCCC(=O)NC(c1ccccc1)c1c(O)ccc2ccccc12 (centres undefined),8%,nt,nt,nt,nt,2%,7%,-18%
CC(=O)c1c(N2CCC(C(N)=O)CC2)nc(=S)n(-c2ccccc2)c1C,11%,1%,2%,1.0%,-20%,0%,-7%,-13%
COc1ccccc1/C=C1\Cc2ccccc2C1=O,-39%,nt,nt,nt,nt,-2%,-15%,50%[activator]
COc1ccc(-n2nc(C(=O)NCC(=O)NC3CCCC(C)C3C)c3ccccc3c2=O)c(OC)c1 (centres undefined),20%,-14%[46.1 µM],nt,nt,?,2%,-1%,-17%
O=S1(=O)CCOCCCN1Cc1ccccc1Br,11%,nt,nt,nt,nt,-2%,-7%,-14%
COc1cc(C)c(CN2CCC(Oc3ccc(C(=O)N4CCCC4)cc3)CC2)cc1C,-4%,nt,nt,nt,nt,7%,-2%,-20%
Cc1ccc(/C=N\NC(=O)Cn2c(C)nc3ccccc32)o1,1%,6%,11%,-0.8%,8%,4%,-4%,?
CC(=NCCN1CCOCC1)c1c(O)n(Cc2ccccc2)c(=O)[nH]c1=O,11%,6%,-7%,4.8%,-15%,-2%,2%,14%
Cc1cccc(C)c1NC(=O)C(NC=O)c1ccc(N(C)C)cc1 (centres undefined),?,9%[46.1 µM],-3%,-2.9%,-5%,5%,1%,-11%
O=C(Nc1ccc(C(=O)N2CCOCC2)cc1)c1cccc([N+](=O)[O-])c1,0%,1%[46.1 µM],nt,nt,15%,1%,4%,-12%
O=C(CSc1ccc(-c2ccco2)nn1)Nc1cccc(F)c1,-24%,?,nt,nt,?,?,-5%,?
O=c1cc(-c2ccc(O)c(O)c2)oc2c(C3O[C@H](CO)[C@@H](O)[C@H](O)[C@H]3O)c(O)cc(O)c12 (some centres undefined),15%,?,-10%,-8.7%,-6%,-3%,13%,-9%
Cc1ccc(S(=O)(=O)Nc2c(O)ccc3ccccc23)cc1,nt,-10%[46.1 µM],nt,nt,8%[46.1 µM],nt,-5%,24%
O=C(NCCc1cn2ccsc2n1)C1CCCCC1,-20%,nt,13µM*,-6.9%,nt,6%,-4%,-8%
COc1ccc(C2(c3ccc(OC)cc3)NC(=O)N(CC(=O)NCC(F)(F)F)C2=O)cc1,-12%,6%[46.1 µM],nt,nt,nt,0%,3%,14%
O=C(CSC1=NNC(c2ccccn2)S1)Nc1ccc(C(F)(F)F)cc1 (centres undefined),2%,?,nt,nt,?,-16%,13%,-15%
CCS(=O)(=O)Nc1cc2c3c(c1)CCN3C(=O)CC2,-9%,nt,nt,nt,nt,4%,23%,-18%
CCn1cc(CN2CCCC(C(=O)c3sccc3C)C2)cn1 (centres undefined),5%,2%[46.1 µM],nt,nt,15%[46.1 µM],-1%,-11%,6%
COc1cccc(NC(=O)Nc2ccc3c(c2)OCO3)c1,6%,nt,nt,nt,nt,-8%,5%,77%[activator]
COc1ccc(Br)cc1CN1CCN(Cc2c[nH]c3ccccc23)CC1,-3%,?,nt,nt,?,-2%,-20%,-27%
O=C1C(Cl)=C(Nc2ccc(O)cc2)C(=O)c2ccccc21,1%,?,nt,nt,4.5µM*,-2%,-28%,32µM*
CCN(CC)S(=O)(=O)c1ccc(C(C)NCC(=O)Nc2ccccc2C(=O)NC2CC2)cc1 (centres undefined),nt,?,nt,nt,0%,-1%,-4%,-27%
CCOC(=O)NC(Nc1nc2ccccc2s1)(C(=O)OCC)C(F)(F)F (centres undefined),-5%,4%,-7%,-5.2%,14%,9%,-13%,57%[activator]
COc1ccc(S(=O)(=O)c2c(O)c3ccc(C(=O)Nc4cccc(F)c4)cc3[nH]c2=O)cc1,8%,nt,nt,nt,nt,4%,16%,-9%
Cc1ccc(COC(=O)c2ccc3ccccc3n2)cc1,-36%,?,nt,nt,-1%[46.1 µM],-2%,-29%,14%
CN(CCc1ccccn1)C(=S)NC(=O)c1ccco1,nt,23%,nt,nt,-2%,0%,0%,-19%
O=C1Cc2cc(S(=O)(=O)N3CCN(c4cccc(Cl)c4)CC3)ccc2N1,-2%,5%[46.1 µM],?,-3.3%,20%[46.1 µM],-2%,-3%,-6%&-5%
NNc1nc2sc3c(c2c(=O)n1-c1ccccc1)CCCC3,?,4%[46.1 µM],nt,nt,-18%[46.1 µM],-1%,-6%,-9%
C#CC1(NC(=O)NC(C)(C)C)CCCCC1,9%,nt,nt,nt,nt,0%,16%,5%
COc1ccc(/C=C\c2nc(O)c([N+](=O)[O-])c(=O)[nH]2)cc1O,6%,19%,nt,nt,2%,0%,6%,6%
Cc1nn(C)cc1S(=O)(=O)NCc1ccc2c(c1)OCO2,6%,27%[46.1 µM],nt,nt,2%[46.1 µM],-1%,25%,12%
O=C(CSc1ccccc1C(=O)O)NCc1ccccc1,nt,?,nt,nt,4%,0%,4%,12%
Cc1cccc(C(=O)OCC(=O)N(CC(C)C)c2c(N)n(Cc3ccccc3)c(=O)[nH]c2=O)c1O,nt,-2%[46.1 µM],nt,nt,19%,5%,1%,-10%
CC(=O)c1cccc(S(=O)(=O)N2CCCC(c3nc4c(nnn4Cc4ccccc4Cl)c(=O)[nH]3)C2)c1 (centres undefined),22%,?,nt,nt,nt,2%,3%,-25%
Cc1cc(-c2ccc(S(=O)(=O)Nc3ccc(Cl)cc3C)cc2)on1,nt,nt,-10%,-12%,-27%[46.1 µM],nt,nt,-10%
CC1(C)CC(=O)C2=C(C1)N(c1cccc(Cl)c1)C(=O)NC2(C(F)(F)F)C(F)(F)F,1%,0%,14%,-1.6%,-2%,-17%,-15%,-18%
COc1ccc(CC(=O)NCc2ccccc2)cc1S(=O)(=O)N1CCOCC1,-30%,-14%&-14%,0%,1.8%,15%,-8%,9%,-3%
CCCc1ncc(C(O)c2cccc3ccccc23)n1C (centres undefined),-17%,-30%[46.1 µM],-9%,2.0%,1%,4%,-3%,?

# Copied from the list:
# O=C1C(Cl)=C(Nc2ccc(O)cc2)C(=O)c2ccccc21 @ SARS PLpro yeast: -2%
# Cc1cc(-c2ccc(S(=O)(=O)Nc3ccc(Cl)cc3C)cc2)on1 @ Cruzain noTriton: -10%
# NNc1nc2sc3c(c2c(=O)n1-c1ccccc1)CCCC3 @ RE007 growth inh: -6%
# COc1ccc(/C=C\c2nc(O)c([N+](=O)[O-])c(=O)[nH]2)cc1O @ RE007 growth inh: 6%
# CCOC(=O)NC(Nc1nc2ccccc2s1)(C(=O)OCC)C(F)(F)F (centres undefined) @ RE007 growth inh: -13%
# CCN(CC)S(=O)(=O)c1ccc(C(C)NCC(=O)Nc2ccccc2C(=O)NC2CC2)cc1 (centres undefined) @ RE007 growth inh: -4%

# (more compounds)
smiles,NS1 function inh,MARV entry inh,Cruzain noTriton,Cruzain inh Det,LASV entry inh,SARS PLpro yeast,RE007 growth inh,2A StopGo
O=C(CSc1nnc(CNC(=O)c2ccccc2)o1)Nc1ccc2c(c1)OCO2,-12%,16%,nt,nt,6%,-5%,12%,-22%
CC(NC(=O)C1CCN(S(=O)(=O)c2cnc[nH]2)CC1)c1ccccc1 (centres undefined),11%,-1%,-11%,-0.2%,22%,21%,5%,-9%
O=C(O)COCC(=O)Nc1ccc(OCCc2ccccc2)cc1,1%,nt,nt,nt,nt,-1%,2%,-14%
CCOc1cc2[nH]c(=O)n(CCCC(=O)N3CCN(c4cccc(Cl)c4)CC3)c(=O)c2cc1OCC,nt,nt,-5%,-0.6%,-16%[46.1 µM],nt,nt,?
Cc1ccc(S(=O)(=O)NCC(=O)OCCOc2ccc(Br)cc2)cc1,nt,?,nt,nt,6%,0%,-12%,1%
COc1cccc(/C=N/N2C(=O)C3C4c5ccccc5C(c5ccccc54)C3C2=O)c1OC (centres undefined),0%,2%,9%,-5.7%,nt,0%,nt,nt
COc1ccc(NC(=O)CSc2cn[nH]n2)cc1OC,16%,6%[46.1 µM],nt,nt,22%,-2%,33%,-19%
CC1(CCc2ccccc2)NC(=O)NC1=O (centres undefined),nt,?,nt,nt,20%,nt,-4%,0%
CCCc1cc(=O)n2[nH]c(NCc3c(Cl)cccc3Cl)nc2n1,1%,-3%,-8%,0.5%,-3%,3%,0%,-6%
Cc1nc2c(ccc3nc(NC(=O)C4CC4)sc32)s1,nt,?,nt,nt,?,-1%,5%,58%[activator]
O=C(CN(Cc1ccccc1F)S(=O)(=O)c1ccc(Cl)cc1)NCC1CCCO1 (centres undefined),0%,-15%,nt,nt,-5%,3%,-10%,24%

# Structures listed so far containing a nitro group on carbon:
smiles,NS1 function inh,MARV entry inh,Cruzain noTriton,Cruzain inh Det,LASV entry inh,SARS PLpro yeast,RE007 growth inh,2A StopGo
O=C(Nc1ccc(C(=O)N2CCOCC2)cc1)c1cccc([N+](=O)[O-])c1,0%,1%[46.1 µM],nt,nt,15%,1%,4%,-12%
COc1ccc(/C=C\c2nc(O)c([N+](=O)[O-])c(=O)[nH]2)cc1O,6%,19%,nt,nt,2%,0%,6%,6%

# 2 neighbouring records from above:
smiles,NS1 function inh,MARV entry inh,Cruzain noTriton,Cruzain inh Det,LASV entry inh,SARS PLpro yeast,RE007 growth inh,2A StopGo
Cc1nc2c(ccc3nc(NC(=O)C4CC4)sc32)s1,nt,?,nt,nt,?,-1%,5%,58%[activator]
O=C(CN(Cc1ccccc1F)S(=O)(=O)c1ccc(Cl)cc1)NCC1CCCO1 (centres undefined),0%,-15%,nt,nt,-5%,3%,-10%,24%

# Random draw from the library; about 4.7% have a hit in one of these screens.
